# Bioassay records from PubChem.
# Mtb bLac sens: beta-lactam sensitization of Mtb H37Rv; M. tuberculosis H37Rv growth with meropenem, percent inhibition; hits of this screen are not shown here; inhibition, % at 25 µM; 330,000 tested, 0.27% active; AID 434955;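 active = about 74% or more and at least 40 points above the plate without the antibiotic, then above 30% in a dose series; inconclusive = first-round hits that could not be retested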;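 also: growth measured after seven days incubation then overnight dye step; 0% = bacteria only wells and 100% = bacteria with antibiotic; twin plates without the antibiotic show which effects depend on it; some results filed as inactive read as strong as hits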
# Mtb growth: M. tuberculosis H37Rv growth inhibitors, H37Rv strain (AID 1626); M. tuberculosis H37Rv growth inhibition; higher % means a stronger effect; inhibition, % at 10 µM, or IC50 in µM where a hit was titrated; 220,000 tested, 0.95% active;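 active = confirmed in a dose series; inconclusive = inhibition above 80% but not taken into the dose series; inactive = below 80% or under 30% at every dose of the series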;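 also: bacteria incubated seven days before Alamar blue readout; 0% = bacteria only wells and 100% = bacteria with antibiotic wells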
# RecA splice inh: blocks M. tuberculosis RecA intein splicing | P9WHJ3 | cell-free RecA intein splicing, fluorescence | inhibition, %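 (about 9 µM by stock and volumes)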 | 290,000 tested, 0.75% active; in the data active = inhibition above about 30%; inconclusive = no clear call, values can overlap the other calls;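 also: 0% = vehicle wells and 100% = reference inhibitor control wells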
# Target sequence (P9WHJ3 whole entry, looked up, canonical isoform): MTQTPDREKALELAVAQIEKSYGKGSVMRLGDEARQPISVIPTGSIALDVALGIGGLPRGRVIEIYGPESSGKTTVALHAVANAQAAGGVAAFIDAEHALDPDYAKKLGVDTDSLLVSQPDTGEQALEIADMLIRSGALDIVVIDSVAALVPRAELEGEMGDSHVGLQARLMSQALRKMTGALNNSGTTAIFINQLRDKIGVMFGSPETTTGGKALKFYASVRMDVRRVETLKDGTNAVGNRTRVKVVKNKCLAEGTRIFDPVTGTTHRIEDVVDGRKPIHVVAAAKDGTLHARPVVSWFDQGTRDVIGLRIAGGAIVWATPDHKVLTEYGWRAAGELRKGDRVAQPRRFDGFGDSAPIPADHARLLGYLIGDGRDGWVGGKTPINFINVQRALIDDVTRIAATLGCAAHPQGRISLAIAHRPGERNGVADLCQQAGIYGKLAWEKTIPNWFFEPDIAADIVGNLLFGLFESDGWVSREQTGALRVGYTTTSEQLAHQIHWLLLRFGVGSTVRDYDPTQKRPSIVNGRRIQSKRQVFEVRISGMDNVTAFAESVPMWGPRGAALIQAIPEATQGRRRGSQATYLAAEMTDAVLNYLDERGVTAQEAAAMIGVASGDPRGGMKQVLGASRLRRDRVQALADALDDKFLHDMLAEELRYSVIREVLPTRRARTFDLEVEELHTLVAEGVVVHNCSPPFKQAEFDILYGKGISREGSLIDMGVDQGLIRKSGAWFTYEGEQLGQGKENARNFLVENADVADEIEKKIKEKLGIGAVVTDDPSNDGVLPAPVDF
# Arbovirus inh: arbovirus infection inhibition; 200,000 tested, 0.37% active; arbovirus infection cell-based antiviral screen; inhibition, % at 10 µM;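 active = inhibition from about 30%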;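 also: bluetongue infection of BSR cells; cell survival read as ATP light after 72 h; 0% = infected wells without compound and 100% = uninfected wells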
# YopH inh: blocks Yersinia enterocolitica YopH tyrosine phosphatase | 140,000 tested, 0.16% active | inhibition, %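 (about 10 µM by stock and volumes)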 | fluorescence Ex485/Em525;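 active = inhibition of 50% or more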;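 also: controls were vehicle for no effect and minimum signal wells for full effect; inactives centre near -20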
# * = called active by the depositor; ? = inconclusive; / = not tested or not shown. A portion of the library. The share of hits here may be higher or lower than overall.
SMILES,Mtb bLac sens,Mtb growth,RecA splice inh,Arbovirus inh,YopH inh
COc1ccccc1Nc1ncnc2ccccc12,-8,-9%,1.3,-1,-31
CC(=NCc1ccco1)c1c(C(F)(F)F)[nH]n(-c2nc3ccccc3s2)c1=O,-3,-8%,0.8,-4,-33
O=C(c1cccc(S(=O)(=O)N2CCOCC2)c1)N(CCO)Cc1ccccc1,1,-13%,-1.8,3,-30
Cn1c(SC2C(=O)CC(C)(C)CC2=O)nnc1-c1ccco1,1,-3%,0.7,-1,-9
Cc1oc2cc(O)ccc2c(=O)c1Oc1ccc2ccccc2c1,8,-14%,6.0,3,-2
CC1=C(C(=O)NCc2ccccc2)C(c2ccccc2OCC(N)=O)NC(=O)N1 (stereo not drawn),-3,17%,-2.8,6,7
Cc1cc(OCC(=O)NCCCn2ccnc2)c2c(C)cc(=O)oc2c1,-3,/,1.0,/,/
Fc1ccccc1CNCc1ccc2c(c1)OCO2,7,/,-2.1,/,/
Cc1ccnc(NS(=O)(=O)c2cc(-c3cc(C)no3)ccc2C(C)C)c1,-1,/,-1.8,/,/
CC1CCC(C(C)C)C(OC(=O)CSc2n[nH]c(=O)[nH]c2=O)C1 (stereo not drawn),-2,-4%,-1.8,5,-33
COc1cc2nc(CN3CCOCC3)n(CC(=O)N3CCCCCC3)c(=O)c2cc1OC,1,-6%,-5.7,/,/
COc1cc(C(c2sc3nc(C)nn3c2O)N2CC(C)CC(C)C2)cc(OC)c1OC (stereo not drawn),-10,11%,-11,2,-5
O=C(CSc1nc2ccccc2n1S(=O)(=O)c1ccccc1)N1CCCC1,-1,-6%,0.6,-13,-22
Cc1ccc(O)c(NC(=O)C2CCCN2C(=O)OCc2ccccc2)c1 (stereo not drawn),3,/,0.1,/,/
CC1(C)C2CCC1(CS(=O)(=O)NCCc1c[nH]c3ccccc13)C(=O)C2 (stereo not drawn),-2,/,-0.1,/,/
Cc1cccc(Oc2nc(-c3cccc([N+](=O)[O-])c3)nc3ccccc23)c1C,8,2%,-0.9,-1,-19
NC(=O)CC(NC(=O)Cc1cccc2ccccc12)c1ccc(N2CCCCCCC2)c([N+](=O)[O-])c1 (stereo not drawn),59,/,-0.1,/,/
CCOC(=O)c1cc(-c2ccccc2)sc1N,4,/,1.3,-4,-125
CCCN1C/C(=C/c2ccc3c(c2)OCO3)C(=O)/C(=C/c2ccc3c(c2)OCO3)C1,25,-1%,1.3,-34,-35
CC(=O)Nc1ccc(NC(=O)Nc2cccc(C)c2C)cc1,3,0%,-2.9,0,/
Cc1cc(C)cc(NS(=O)(=O)c2cc3[nH]c(=O)c(=O)[nH]c3cc2C)c1,-4,/,4.4,/,/
Cc1ccc(C(=O)c2oc3ccc(Cl)cc3c2NC(=O)CN2CCN(C)CC2)cc1,100,/,5.0,/,/
Cc1ccc(/C=N/NC(=O)CNC(=O)COc2ccc(Cl)cc2)o1,0,-9%,-0.2,0,/
Cc1c(Cl)c([N+](=O)[O-])nn1CC(=O)NC1CCCCC1,-10,-2%,-3.4,0,-18

# Given with tabs: part of the list above
smiles	Mtb bLac sens	Mtb growth	RecA splice inh	Arbovirus inh	YopH inh
CC(=O)Nc1ccc(NC(=O)Nc2cccc(C)c2C)cc1	3	0%	-2.9	0	/
Cc1cc(C)cc(NS(=O)(=O)c2cc3[nH]c(=O)c(=O)[nH]c3cc2C)c1	-4	/	4.4	/	/
Cc1ccc(C(=O)c2oc3ccc(Cl)cc3c2NC(=O)CN2CCN(C)CC2)cc1	100	/	5.0	/	/
Cc1ccc(/C=N/NC(=O)CNC(=O)COc2ccc(Cl)cc2)o1	0	-9%	-0.2	0	/

# The listing continues:
SMILES,Mtb bLac sens,Mtb growth,RecA splice inh,Arbovirus inh,YopH inh
COc1cc(/C=N/c2oc(C)c(C)c2C#N)cc(Br)c1O,6,/,-3.4,/,/
Cc1ccc(-n2nnnc2SCc2nnc(-c3ccccc3Br)o2)cc1,-3,-6%,4.9,-19,-36
O=C(Cc1csc(-c2ccccc2)n1)NCc1ccc(F)cc1,12,11%,1.9,-6,11
O=C(CCN1C(=O)c2ccccc2C1=O)Nc1nc2ccccc2s1,2,0%,0.7,-1,-32
Cc1nnc(SCc2ccc(C(=O)O)cc2)s1,-4,-13%,14,1,-22
Cn1ccnc1Sc1nc2c(c(=O)n(C)c(=O)n2C)n1C,0,-3%,0.9,10,-52
CCC(=O)N1CCc2cc(S(=O)(=O)NC(C(=O)NC(C)c3ccccc3)C(C)C)ccc21 (stereo not drawn),-4,-9%,-0.3,-2,-11
CCn1c(SCC(=O)Nc2ccc(C(=O)OC)cc2)nc2cccnc21,-4,/,-0.6,8,5
CC(=O)N/C(=C\c1ccccc1)C(=O)OCc1ccc(F)cc1,1,/,0.3,/,/
CN(Cc1ccco1)C(=O)C1CCCN(c2ncnc3c2nc2n3CCCCC2)C1 (stereo not drawn),-2,/,-6.5,/,/
CCOc1ccc(-c2nnn(CC(=O)Nc3cc(OC)cc(OC)c3)n2)cc1OCC,8,-10%,-0.8,-14,-37
CCCC(C(=O)NCc1ccco1)N(C(=O)CNS(=O)(=O)c1ccccc1)c1ccc(OC)cc1 (stereo not drawn),-3,10%,0.2,8,/
Cc1nc2ccccc2c(=O)n1NC(=O)Cc1ccc(Br)cc1,-4,3%,0.4,13,-37
COc1ccc2c(c1OC)C(=O)N(c1nc(SC)n[nH]1)C2=O,5,/,1.1,/,/
Cc1ccc(N(CC(=O)NCC2CCCO2)C(=O)CCC(=O)Nc2nccs2)cc1C (stereo not drawn),3,/,-0.4,/,/
Cc1ccc(N=C(N(C)C)P(=O)(N(C)C)N(C)C)cc1,-9,-4%,-0.2,3,/
CC(C)[C@H](NC(=O)c1ccccc1)C(=O)OCC(=O)c1ccccc1F,-1,4%,4.4,-1,/
O=C(O/N=C1\C(=O)N(c2ccccc2)c2ccccc21)C1CC1,1,0%,1.1,-1,/
COc1cc(C(C)=O)ccc1OCC(=O)c1cc(C)n(C2CC2)c1C,-10,-1%,1.6,-5,-43
CNC(=O)c1ccccc1-c1ccccc1,-1,-1%,0.3,6,-21
COc1ccc(/C(O)=C2/C(=O)C(=O)N(CCN3CCOCC3)C2c2cccnc2)cc1OC (stereo not drawn),9,-6%,-1.5,0,-35
c1ccc(-n2c(-c3ccncc3)nnc2-c2ccco2)cc1,-5,-4%,/,9,-21
c1ccc(Oc2cccc(OCCCCSc3ncccn3)c2)cc1,4,22%,12,4,7
Cc1ccccc1N(CC(=O)NCC1CCCO1)C(=O)CNS(=O)(=O)c1ccc(F)cc1 (stereo not drawn),4,/,-1.4,/,/
COc1ccccc1C(CCN(Cc1ccccc1)C(C)=O)c1ccco1 (stereo not drawn),-4,5%,17,/,/
COC(=O)c1ccccc1S(=O)(=O)Oc1ccc(-c2ccc(C(=O)O)cc2)cc1,-2,/,-3.0,/,/
Cc1ccc(OCC(O)Cn2c(N3CCCCC3)nc3c2c(=O)[nH]c(=O)n3C)cc1C (stereo not drawn),-1,/,-1.1,/,/
CCOC(=O)c1cnn(-c2nc(-c3cccc(F)c3)cs2)c1C(F)(F)F,-9,1%,5.5,4,-21
O=C(CCNC(=O)c1ccccc1Cl)OCC(=O)c1ccccc1,1,-5%,-0.9,0,/
COc1cc(NC(=O)c2cccs2)c(OC)cc1NC(=O)c1cccs1,1,/,-5.0,/,/
CCn1c(=O)c(-c2ccccc2)c(O)c2ccccc21,5,-3%,-0.6,9,-32
CCOc1ccc(N2C(=O)CC(SCCN)C2=O)cc1 (stereo not drawn),3,-8%,-1.1,3,-32
O=C(NC1CCCCC1)N1CCN(Cc2nc3ccccc3c(=O)[nH]2)CC1,2,-16%,-2.3,/,-27
CCCc1nc2sc3c(c2c(=O)n1NC(=O)CCCl)CCCC3,-3,/,4.1,13,-9
COc1ccc2c(c1)cc(C(=O)N[C@@H](CCSC)C(=O)N1CCC(C(=O)O)CC1)n2C,-5,/,-1.3,/,/
N#C/C(=C\c1c(N2CCCCCC2)nc2ccccn2c1=O)C(=O)NCc1ccco1,2,-8%,1.6,/,/
O=C(NC1CCCC1)C(c1ccccc1)N(Cc1ccco1)C(=O)Cc1cccs1 (stereo not drawn),1,2%,1.0,-6,-30
COc1cc2c(cc1OC)CN(C(=O)c1ccc(N3CCCC3)c([N+](=O)[O-])c1)CC2,2,/,4.3,/,/
COc1cc(NS(=O)(=O)c2ccc(N/C=C(\C=O)c3nc4cc(Cl)ccc4o3)cc2)nc(OC)n1,77,-8%,0.3,2,-20
CCC(C(=O)OCC(=O)Nc1ccc(C)c(S(=O)(=O)N2CCOCC2)c1)c1ccccc1 (stereo not drawn),1,/,4.2,/,/
COCc1nc2ccccc2n1CCCOc1ccccc1,-13,6%,1.6,7,-37
CN(C)S(=O)(=O)N1CCC(Oc2ccc(C(=O)NC3CCOC(C)(C)C3)cc2)CC1 (stereo not drawn),-5,/,-6.5,/,/
COc1ccc(C(=O)Nc2cc(C)c(NC(=O)c3ccccc3OC)cn2)cc1,17,/,4.0,/,/
COCCNC(=S)N/N=C(\C)c1ccc(Cl)c(Cl)c1Cl,-11,?,-0.8,-8,/
C=CCn1c(SCC(=O)Nc2ccc(N(C)C)cc2)nnc1-c1cccc(C)c1,-9,3%,0.0,-26,-41
COCC(=O)Nc1nnc(COc2ccc(Cl)cc2)s1,-10,2%,1.0,13,-23
C1=CCC(/C=N/n2cnnc2)CC1 (stereo not drawn),4,-6%,1.0,5,-32
Cc1ccc(NC(=O)Nc2nnc(Cc3ccc([N+](=O)[O-])cc3)s2)cc1C,-9,1%,0.1,6,-26
CCN1CCCc2cc(CN(CCN3CCOCC3)C(=S)Nc3ccc(C)cc3)ccc21,-12,3%,0.0,2,/
CC(=O)c1c(C)[nH]c(C(=O)NCc2ccc(F)cc2)c1C,-1,6%,0.5,10,/
O=C(O)c1ccc2c(=O)n3c(nc2c1)/C(=C/c1ccccc1OC(F)F)CC3,-3,/,-1.5,/,/
CCCN=Cc1ccc(O)cc1,-4,6%,-5.3,6,/
CCCCOc1ccc(CC2CCC(=O)NC2=O)cc1 (stereo not drawn),1,5%,-1.6,0,/
NC(=O)[C@H](Cc1cc2ccccc2s1)NC(=O)[C@@H]1CC2(CC(c3cccc(NC(=O)[C@@H]4CCC(=O)N4)c3)=NO2)CN1C(=O)/C=C/c1c(F)cccc1Cl (stereo partly drawn),75,28%,33*,-4,-16
O=C1NC(NS(=O)(=O)c2ccccc2)(C(F)(F)F)C(=O)N1Cc1cccnc1 (stereo not drawn),-10,5%,0.7,-3,-12
Cc1cccc(C)c1NC(=S)N1CC(C)OC(C)C1 (stereo not drawn),0,-5%,-1.3,/,/
N#Cc1ccc(CN(c2ccncc2)S(=O)(=O)c2ccccc2)cc1,-4,/,-1.2,/,/
O=C1NC(=O)C(CCc2ccncc2)(Cc2ccc3c(c2)OCO3)C(=O)N1CCc1ccccc1 (stereo not drawn),-1,-5%,11,4,20
Cc1ccc(CCN2CC(C(=O)NC(C)C)CC2=O)cc1 (stereo not drawn),1,/,4.1,/,/
CCOc1ccc(NC(=O)Nc2cc(C(C)C)c(O)cc2C)cc1,-1,-6%,-0.6,/,/

# Complete entries, quoted from the list:
# Cc1cccc(C)c1NC(=S)N1CC(C)OC(C)C1 (stereo not drawn) across the screens: Mtb bLac sens: 0; Mtb growth: -5%; RecA splice inh: -1.3; Arbovirus inh: /; YopH inh: /
# O=C(O)c1ccc2c(=O)n3c(nc2c1)/C(=C/c1ccccc1OC(F)F)CC3 across the screens: Mtb bLac sens: -3; Mtb growth: /; RecA splice inh: -1.5; Arbovirus inh: /; YopH inh: /
# CC(=O)c1c(C)[nH]c(C(=O)NCc2ccc(F)cc2)c1C across the screens: Mtb bLac sens: -1; Mtb growth: 6%; RecA splice inh: 0.5; Arbovirus inh: 10; YopH inh: /

# Later entries:
SMILES,Mtb bLac sens,Mtb growth,RecA splice inh,Arbovirus inh,YopH inh
CCOCCCNS(=O)(=O)c1ccc(NC(=O)N2c3ccccc3Sc3ccccc32)cc1,96,76%,8.4,-35,-25
c1csc(C(c2nnnn2C2CCCCC2)N2CCN(c3nc4ccccc4s3)CC2)c1 (stereo not drawn),/,2%,1.4,-2,-27
CCN(CC)S(=O)(=O)c1cccc(NC(=O)C(=O)c2c(-c3ccccc3)cc3ccccn23)c1,-17,/,7.8,1,-4
COc1ccc2nc(NC(=O)CN(C)S(=O)(=O)c3cccs3)sc2c1,95,19%,1.6,-4,6
O=C(NCCc1ccccc1)C(=O)NCC1OCCN1S(=O)(=O)c1ccc(F)cc1 (stereo not drawn),3,/,-6.0,/,/
Cc1cc(C)c(NC(=O)Nc2ccc3c(c2)OCO3)c(C)c1,2,/,-2.6,/,/
CCCCNS(=O)(=O)c1ccc2nc(SCC(=O)c3ccc(C#N)cc3)[nH]c2c1,-1,9%,8.5,5,-28

# As entered above.
# `c1csc(C(c2nnnn2C2CCCCC2)N2CCN(c3nc4ccccc4s3)CC2)c1` (stereo not drawn) | Mtb growth: 2%
# `CCOCCCNS(=O)(=O)c1ccc(NC(=O)N2c3ccccc3Sc3ccccc32)cc1` | Arbovirus inh: -35
